# Assay outcomes (PubChem BioAssay)
# Biofilm kill mix: clotrimazole potentiators killing C. albicans biofilm, primary screen, 4-compound mixtures. C. albicans biofilm persisters + clotrimazole, fluorescence viability; primary screen in compound mixtures of four per well. inhibition, % at 7.6 µM. 120,000 compounds, 0.02% hits;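 active = inhibition above 30.3% in the primary screen of four-compound pools, then above 30% when the compound was retested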;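 note: compounds exposed to preformed 24 h biofilms for 48 h; the number belongs to the whole pool; some results filed as inactive read as strong as hits; inactives centre near 12; 0% = biofilm with clotrimazole alone and 100% = kill control; retested singly at about 60 µM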
#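 System: C. albicans CAF4-2 wild-type biofilms; Medium: RPMI/MOPS medium, pH 7.0; Reagent: Clotrimazole, 50 µg/mL; Times: biofilm formation 24 h, compound exposure 48 h, 37 °C; Detection: 2-h Alamar Blue fluorescence, 535/590 nm excitation/emission; Evaluation: percent inhibition of biofilm viability.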
# The depositor's hits bear a star. An excerpt; rates above refer to the full screens.
canonical_smiles,Biofilm kill mix
COc1cc(Cl)cc(C2NC(=S)NC(c3ccccc3)=C2C(C)=O)c1OCC(=O)O (configuration not stated),13.5
CC(C)OC(=O)c1c(NC(=O)c2ccco2)sc2c1CCCC2,12.2
COc1ccc(Br)cc1[C@H]1[C@@H]2C=CCC[C@@]2(C)C(=O)N1Cc1ccccc1,14.4
CCOc1ccc2nc(NC(=O)Cn3[nH]c(=O)c4ccccc4c3=O)sc2c1,16.6
CCN1CCN(Cc2ccc(NC(=O)c3ccc(C)c(NC(=O)c4cc(-c5ccc(Br)cc5)n[nH]4)c3)cc2C(F)(F)F)CC1,18.6
COc1ccc(NC(=S)Nc2ccc(OCc3ccccc3)cc2)c(OC)c1,7.4
CC/C(=N/NC(=O)c1ccccc1)c1ccc(OCCN2CCOCC2)cc1,17.1
Cc1coc2c(O)cc3c(c12)OC1(N2CCCCC2)C(=O)NCCCC31 (configuration not stated),18.6
Cc1noc(C)c1COC(=O)[C@@H](NC(=O)c1ccccc1Cl)C(C)C,11.5
CC(Sc1nnc(-c2cccnc2)n1-c1ccccc1F)C(=O)N1CCCc2ccccc21 (configuration not stated),18.6
Cc1cc(C)nc(OC(=O)c2ccc(Cl)cc2Cl)n1,5.9
COc1cc(OC)cc(C(=O)NCC(=O)OCc2nc3ccccc3s2)c1,10.4

# Following part
canonical_smiles,Biofilm kill mix
CC(=O)N(Cc1ccccn1)Cc1ccco1,6.1
O=C(Nc1cc(S(=O)(=O)N2CCOCC2)ccc1N1CCCC1)c1cc(=O)[nH]c2ccccc12,1.3
CCOC(=O)c1ccc(NC(=O)c2cc3c(s2)CCC3)cc1,9.7
CC(=O)c1c(C)nc2ccc(Br)cc2c1-c1ccccc1,16.4
O=C(c1ccc2c3c(cccc13)CC2)C1CCCN(C(=O)c2ccc[n+]([O-])c2)C1 (configuration not stated),-3.3
O=C(CSc1c2c(nc3cc(Cl)ccc13)CCCC2)NCCCN1CCOCC1,24.7
COc1ccc(/C=C/c2cc(C(F)(F)F)on2)cc1,1.1
Cc1cccc(N(CC(=O)Nc2ccccc2-c2ccccc2)S(=O)(=O)c2ccccc2)c1C,-12.1
COc1cc(C(=O)OCC(=O)N2CCCCC2C)cc(NC(=O)c2cccs2)c1OC (configuration not stated),6.8
Cc1nnc(SCc2nnc(-c3cccs3)o2)n1Cc1ccccc1,7.5
c1ccc(N2CCN(c3nc4ccccc4[nH]3)CC2)nc1,10.5
NS(=O)(=O)c1ccc(NC(=S)NCc2ccc3c(c2)OCO3)cc1,50.4

# The final four records of the section before come first, to join the parts.
canonical_smiles,Biofilm kill mix
COc1cc(C(=O)OCC(=O)N2CCCCC2C)cc(NC(=O)c2cccs2)c1OC (configuration not stated),6.8
Cc1nnc(SCc2nnc(-c3cccs3)o2)n1Cc1ccccc1,7.5
c1ccc(N2CCN(c3nc4ccccc4[nH]3)CC2)nc1,10.5
NS(=O)(=O)c1ccc(NC(=S)NCc2ccc3c(c2)OCO3)cc1,50.4
Cc1c(NP(=O)(c2ccc(Br)cc2)c2ccc(Br)cc2)c(=O)n(-c2ccccc2)n1C,9.5
O=C(CC1C(=O)NCCN1C(=O)Nc1ccc(C(F)(F)F)cc1)Nc1ccc(F)cc1 (configuration not stated),6.1
CCN(CC)c1ccc(S(=O)(=O)N2CCOCC2)cc1NC(=O)CSc1n[nH]c(N)n1,16.1
CCCCNC(=O)C1CCCN(S(=O)(=O)c2c(C)noc2/C=C/c2cccs2)C1 (configuration not stated),26.7
COc1ccc(-c2[nH]ncc2CN2CCCN(C(=O)c3ccco3)CC2)cc1F,22.9
COc1ccccc1CNC(=O)c1ccc(Br)o1,17.3
C#CC1CCCCC1NC(=O)Nc1cnccc1C(F)(F)F (configuration not stated),14.3
Cn1c(=O)[nH]c(=O)c2c1nc(N1CCOCC1)n2CCSc1nnnn1-c1ccccc1,20.0
O=C(CNc1cccc(C(F)(F)F)c1)N/N=C/C1CCCCC1,11.6
COc1ccc(-c2noc(CNC(=O)Nc3ccc(F)cc3)n2)cc1,0.1
COC(=O)Cc1sc(-c2ccccn2)nc1-c1ccccc1,12.6
CC(=O)NC(Nc1c(C)n(C)n(-c2ccccc2)c1=O)C(Cl)(Cl)Cl (configuration not stated),7.0

# Further structures.
canonical_smiles,Biofilm kill mix
Cc1cccc2nc(CSc3nc4ccccc4[nH]3)cn12,8.6
CCNCc1ccc(OCc2ccccc2F)c(OC)c1,14.2
O=C(Nc1ccccc1)C1=C[C@H](c2ccc3c(c2)OCO3)C[C@H](OCCCCO)O1,14.4
C=CCn1c(SCC(=O)c2[nH]c(C)c(C(=O)OC)c2C)nc2scc(-c3ccc(OC)c(OC)c3)c2c1=O,-0.6
CC(C)(O)C#Cc1ccc(CN2CCN(Cc3ccsc3)C(CCO)C2)s1 (configuration not stated),13.3
CCc1ccc(C(=O)NNc2ccc(S(N)(=O)=O)cc2)cc1,26.7
CCOC(=O)N1CCN(S(=O)(=O)c2cc([N+](=O)[O-])c(C)cc2C)CC1,11.6
CC1(C)C2CCC(C2)C1(C)N=C1OC(CCl)CS1 (configuration not stated),5.6
Cc1ccsc1C(=O)NC(C)c1ccc2c(c1)OCO2 (configuration not stated),-3.0
CC(=O)c1ccc(N2CCc3ccccc3C2)c([N+](=O)[O-])c1,8.5
CCOc1ccc(NC(=O)c2c[nH]n3c(=O)cc(C4CCN(C(=O)OC(C)(C)C)CC4)nc23)cc1,12.3
O=C(Cn1ncc(N2CCCC2)c(Br)c1=O)c1ccc(Cl)cc1,13.6

# Additional compounds follow:
canonical_smiles,Biofilm kill mix
O=C(Cc1cccs1)NNC(=S)NC(=O)c1ccco1,24.2
CN(C)S(=O)(=O)c1ccc(N2CCCC2)c(C(=O)Nc2nc(-c3cc(F)ccc3F)cs2)c1,5.9
COCCCNC(=O)c1sc2ncnc(N3CCc4ccccc4C3)c2c1C,9.1
C(=N\N=C\c1cccs1)/c1cccs1,11.6
COCCN(CCOC)C(=O)N1CCOCC1,8.7
CCN(Cc1ccncc1)Cc1c(O)ccc2cc(Br)ccc12,7.7
Cc1cc(C)c(NC(=O)Nc2ccccc2)c(Cl)c1,2.6
Cc1ccnc(NS(=O)(=O)c2ccc(C(C)(C)C)cc2)c1,7.8
CNc1nc(N)nc(-c2cc(Cl)ccc2OC)n1,0.2
CCOC(=O)c1sc(N(C)C)nc1-c1ccccc1,8.3
O=C(NCCCn1ccnc1)c1cc(-c2cccc(O)c2)on1,18.1
O=C(O)CCc1ccccc1OC(=O)c1ccccc1,16.8

# Continued:
canonical_smiles,Biofilm kill mix
Cc1cc(C)c(C)c(S(=O)(=O)NC(C)C(=O)O)c1C (configuration not stated),13.4
CCc1ccc(C(=O)C(C)OC(=O)C2COc3ccccc3O2)cc1 (configuration not stated),8.2
COc1ccc(S(=O)(=O)Nc2ccc3cn[nH]c3c2)cc1C,0.2
COc1ccc2[nH]c(-c3ccccc3)cc2c1,11.0
CCOC(=O)c1oc2cc(OC(C)=O)ccc2c(=O)c1-c1ccc(OC)c(OC)c1,7.1
O=[N+]([O-])c1cccc(/C=N/NC2CCS(=O)(=O)C2)c1 (configuration not stated),21.3
Cc1ccc(C#CC(C)(O)C(C)(C)C)cn1 (configuration not stated),26.9
Cn1c(N)c(C(=O)COC(=O)C2CCN(S(=O)(=O)c3cccs3)CC2)c(=O)n(C)c1=O,14.2
O=C1N(c2ccccc2)C(c2ccc(Cl)cc2)N2CCCN12 (configuration not stated),24.2
Cc1ccc(C(=O)N2CCC3(CC2)Oc2ccc(Cl)cc2C(=O)C32CC(c3ccccc3)=NO2)s1 (configuration not stated),14.9
Cc1ccc(C(=O)CC(C(=O)O)n2cnc([N+](=O)[O-])n2)cc1 (configuration not stated),9.2
O=C(/C=C/c1ccccc1)NCCCNC(=O)/C=C/c1ccccc1,17.7

# Following part:
canonical_smiles,Biofilm kill mix
Cn1c(=NC(=O)COc2ccccc2)sc2cccc(F)c21,22.9
CCOc1ccc(C(c2c(NC(=O)c3ccccc3)sc(C)c2C)N2CCN(CCO)CC2)cc1 (configuration not stated),7.4
CCN(CC)C1=CC2=CC(=C(C#N)C#N)CCC2CC1 (configuration not stated),11.0
COc1ccc(CCC(C)Nc2ccc(F)c(F)c2)cc1 (configuration not stated),12.8
C=CCC1(Cl)C(=O)C(Cl)=C(N2CCN(C)CC2)C1(OC)OC (configuration not stated),14.2
O=C1/C(=C/C=C/c2ccco2)SC(=S)N1c1ccc(O)cc1,30.3
CCOC(=O)c1[nH]c(CO)c(C(=O)OCC)c1C,8.4
O=[N+]([O-])c1ccc(/C=C/c2ccc3cccc([N+](=O)[O-])c3n2)cc1,11.8
Cc1cccn2cc(COc3cccc([N+](=O)[O-])c3)nc12,14.5
Cc1ccc(C2(CCN)CCOC(C(C)C)C2)cc1 (configuration not stated),8.2
Cc1ccc(CNC(=O)C2(c3cccs3)CCOCC2)cc1,4.6
N#CCSc1nc2ccccc2o1,10.5

# Going on with the list:
canonical_smiles,Biofilm kill mix
CCN(CC)c1ccc(O)c(C=Nc2ccc(C)c(C)c2)c1,-5.2
COCCCNC(=O)/C(C#N)=C/c1ccc(F)cc1,-1.9
O=c1cc(O)c2ccccc2[nH]1,6.0
CCCCC1=CC2=C(c3ccco3)C(=O)C(C)(OC(=O)c3ccc(OC)cc3)C(=O)C2=CN1CCN1CCOCC1 (configuration not stated),18.2
Cc1cc(Oc2ccc(=O)n(C)n2)nc(=S)[nH]1,-5.4
CCCCNC(=S)N(C)/N=C/c1sc(N2CCCCC2)nc1-c1cccs1,16.3
CCN(CC)CCn1c(=S)[nH]c2ccc(Br)cc2c1=O,-2.2
CCOC(=O)C1=C(O)C(=O)N(c2ccc(S(N)(=O)=O)cc2)C1c1ccc([N+](=O)[O-])cc1 (configuration not stated),23.6
O=c1cc(CSc2n[nH]c(=O)n2C2CC2)c2ccc(O)cc2o1,27.1
CCOc1ccccc1NC(=O)Nc1ccc(CC#N)cc1,18.3
COc1cc(/C=C2\N=C(c3c(-c4ccccc4)noc3C)OC2=O)ccc1OC(C)=O,3.3
Cc1csc(Nc2ccccc2)n1,11.4

# Next results:
canonical_smiles,Biofilm kill mix
COc1cccc(OC)c1C(=O)NC(=S)N1CCOCC1,11.5
CCOc1cc(Br)c(Br)c(C=Nc2ccc(NC(C)=O)cc2)c1O,18.4
COc1cc(CNCCO)cc(Cl)c1OCc1ccc(Cl)cc1Cl,5.5
CC(=O)Nc1ccc(OCC(=O)NCc2ccc(C)cc2)cc1,10.5
O=C(NC1CC1)c1cc(OCC(F)(F)F)ccc1OCC(F)(F)F,17.6
O=C(Nc1sc2c(c1C(=O)O)CCCCC2)c1cccs1,12.2
COc1cc(NC(c2ccccc2)c2ccccc2)cc(OC)c1OC,19.4
CN1C=CC2=C(C#N)C(N)C(C#N)(C#N)[C@H](c3ccccc3)[C@H]2C1 (some centres not stated),10.8
CCOc1cc(C2C3=C(CCCC3=O)NC3=C2C(=O)CCC3)cc(Cl)c1O,7.4
COc1ccc(CNC(NC(=O)c2ccccc2)(C(F)(F)F)C(F)(F)F)cc1,11.8
Cn1c(=O)n(C)c2cc(NS(=O)(=O)c3cccs3)ccc21,24.3
CC(C)c1nc(C#N)c(NN)o1,19.6

# Remaining list, next part
canonical_smiles,Biofilm kill mix
O=C(CSc1ccc(-c2ccccc2)nn1)c1ccccc1,-0.1
COc1ccc(NC(=S)NC23CN4CN(CN(C4)C2)C3)cc1,7.1
O=C(C1=C[C@H](c2ccc3c(c2)OCO3)C[C@H](OCc2ccc(CO)cc2)O1)N1CCN(Cc2ccc3c(c2)OCO3)CC1,25.7
CS(=O)(=O)N1CCC(C(=O)N2CCN(Cc3ccccc3)CC2)CC1,17.2
COc1cc2c(cc1OC)C(C)N(C(=S)Nc1ccccc1)CC2 (configuration not stated),22.9
COc1ccc(C(=O)CSc2nnc(NC(=O)C3CC(=O)N(c4ccccc4)C3)s2)cc1 (configuration not stated),9.9
c1ccc(Nc2ncnc3[nH]ncc23)cc1,1.4
COC(=O)c1ccc(NC(=O)CSc2nc3cccnc3n2C)cc1,8.3
CCc1ccc(NC(=S)Nc2cccc3cnccc23)cc1,21.1
O=c1oc2ccccc2cc1N1CCOCC1,19.1
CCCn1c(SCC(=O)NCc2ccccc2Cl)n[nH]c1=O,2.0
C/C=C(\C)C(=O)Nc1cccc(C2=NOC3(C2)C[C@@H](C(N)=O)N(C(=O)c2cc([N+](=O)[O-])cc([N+](=O)[O-])c2C)C3)c1 (some centres not stated),12.0

# The listing continues.
canonical_smiles,Biofilm kill mix
O=C(O)/C=C/c1coc2ccc(F)cc2c1=O,5.5
N/C(=N\OC(=O)c1ccc(F)cc1)c1ccc(Br)cc1,13.1
Cc1cc(C)nc(NC(=O)c2csnn2)c1,2.1
O=C(/C=C/c1ccc(Cl)c([N+](=O)[O-])c1)Nc1ccc(N2CCCC2)cc1,14.1
O=C(NCCC1=CCCCC1)c1cccc2c1C(=O)N(C1CCCCC1)C2,19.4
CCc1ccc(C(=O)NNc2ccccc2F)cc1,10.1
S=c1[nH]nc(-c2ccco2)n1-c1ccc(Cl)cc1,24.3
COc1ccc(OC)c(S(=O)(=O)N(C(C)=O)c2ccc3oc(=O)sc3c2)c1,2.0
Cc1cccc(NC(=O)Cn2c(O)c(N=NC(=O)c3ccccc3O)c3ccccc32)c1,8.2
O=C(CCOc1ccccc1)N1CCN(c2ccc(O)cc2)CC1,30.6
Cc1ccc(N=CC2=C(O)CC(c3ccccc3Cl)CC2=O)cc1 (configuration not stated),11.9
Nc1ccc(Oc2ccc3c(c2)OCO3)cc1,5.3
O=C(CCN1CCN(C(c2ccccc2)c2ccccc2)CC1)N/N=C/c1ccc(O)cc1,16.1
